Compound activity from PubChem.
Insulin prom inh – TRM-6 insulin promoter activity inhibition; inhibition, % at 2 µM; 130,000 tested, 0.9% active; TRM-6 cells (human fetal islet line), insulin promoter-eGFP reporter, imaging; reporter expression induced with tamoxifen;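 active means inhibition above the mean plus 3 SD, with well images judged a real hit on visual review, cut at about 60% in these data, passing the limit was not always enough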
RGS16-Gao – RGS16-Galphao interaction regulator (human); bead-based flow cytometry RGS16-Galphao binding, fluorescence; actives lie on both sides; 220,000 tested, 0.38% active; binding response (% of control), % at 10 µM; O15492+P09471;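 active means below 25% or above 175%, edge rows of some plates excepted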;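 further: Galphao activated by GDP with aluminum fluoride before binding; 100% = wells without compound and 0% = beads without RGS; some results beyond the cut were filed as inactive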
GALR2 ag – agonists of human galanin receptor 2 (GALR2) | O43603 | GALR2-expressing cells, agonist activation read-out | activation, %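 (tested at 5 µM)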 | 140,000 tested, 0.48% active | AID 803;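 active means above mean plus 3 SD of all compounds, about 5% in these data, not always enough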;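 further: 0% = vehicle buffer wells and 100% = reference agonist at full effect; tested in CHO reporter cells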
Target sequence (O43603 whole entry, looked up): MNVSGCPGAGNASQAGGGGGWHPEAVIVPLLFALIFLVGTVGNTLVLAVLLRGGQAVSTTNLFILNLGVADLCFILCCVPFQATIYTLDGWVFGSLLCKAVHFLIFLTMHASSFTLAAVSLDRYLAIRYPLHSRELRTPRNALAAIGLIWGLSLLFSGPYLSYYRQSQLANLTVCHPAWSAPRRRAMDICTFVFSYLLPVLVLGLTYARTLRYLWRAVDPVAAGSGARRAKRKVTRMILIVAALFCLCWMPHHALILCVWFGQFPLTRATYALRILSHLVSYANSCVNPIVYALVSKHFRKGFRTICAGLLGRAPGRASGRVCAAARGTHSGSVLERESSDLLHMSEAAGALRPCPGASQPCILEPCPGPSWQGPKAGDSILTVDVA
PKD1 inh – blocks activity of human protein kinase D1; Q15139; PKD1 kinase fluorescence polarization assay; inhibition, %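 (about 10 µM by stock and volumes)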; 200,000 tested, 0.056% active; AID 797;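 active means inhibition of 50% or more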;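 further: controls were vehicle for no effect and a reference inhibitor for full effect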
HSV replic up – HSV replication enhancement; maximum fold increase; HSV replication augmentation in cells, fold increase; AID 1956; 220,000 tested, 0.005% active;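 active means peak rise of 1.5-fold or more in the series; tested in PC3 cells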;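 further: first round at 10 µM; read as green reporter fluorescence; hits show the peak of a series up to 25 µM; 1 = signal of infected wells without compound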
Insulin prom inh cell count – recorded beside Insulin prom inh, whose call it bears; normalized cell count, %; measured here: cell count, toxicity; reference of the scale not given here;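 cells exposed to compound for 48 h; stained nuclei by imaging scaled within each plate; lower means fewer cells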
HSV replic up primary fold – second read-out of HSV replic up, no call of its own (marks repeat the call); fold increase; compound at 10 µM; measured here: primary screen fold increase 10 uM; tested in PC3 cells;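 GFP signal in the first replicate; 1 = infected wells without compound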
Numbers without * were called inactive; i = inactive; · = no result given. The order is random. About 1.3% of those tested had a hit in this group.

Start of the data: the first 3 records, to show the layout:
Each structure is followed by: Insulin prom inh, Insulin prom inh cell count, RGS16-Gao, GALR2 ag, PKD1 inh, HSV replic up, HSV replic up primary fold
> COc1ccc(Cn2cnc([N+](=O)[O-])c2)cc1[N+](=O)[O-]
    ·, ·, 104, ·, ·, i, 0.96
> S=C(Nc1ccc(Br)cc1Cl)Nn1cnnc1
    ·, ·, 98, ·, -3, i, 0.87
> CCOC(=O)CSc1cccc2cccnc12
    -14, 152, 104, -0.3, -4, i, 0.79

This part in full, previewed entries included:
Each structure is followed by: Insulin prom inh, Insulin prom inh cell count, RGS16-Gao, GALR2 ag, PKD1 inh, HSV replic up, HSV replic up primary fold
> COc1ccc(Cn2cnc([N+](=O)[O-])c2)cc1[N+](=O)[O-]
    ·, ·, 104, ·, ·, i, 0.96
> S=C(Nc1ccc(Br)cc1Cl)Nn1cnnc1
    ·, ·, 98, ·, -3, i, 0.87
> CCOC(=O)CSc1cccc2cccnc12
    -14, 152, 104, -0.3, -4, i, 0.79
> COc1n[nH]c(C(=O)Nc2nc3ccccc3s2)c1[N+](=O)[O-]
    ·, ·, 101, ·, 4, i, 0.97
> Cc1ccc(/C=C/C(=O)OCn2nnc3ccccc3c2=O)o1
    ·, ·, 100, ·, ·, i, 0.87
> CC(C)c1ccc(C2NC(=S)NC3=C2C(=O)CC(C)(C)C3)cc1 (centres undefined)
    ·, ·, 99, -0.7, 5, i, 1.1
> CC12C(=O)N(CCC(=O)O)C(=O)C1C1C=CC2C1 (centres undefined)
    25, 123, 106, -2.2, -3, i, 0.97
> Cc1nnc(SCC(=O)NCc2ccc(Cl)cc2)[nH]c1=O
    ·, ·, 102, -1.2, 0, i, 1
> CC(C)(C)OC(=O)N1CCC[C@H]1c1nnc(SCc2c(Cl)cccc2Cl)o1
    -15, 160, 102, 0.0, 7, i, 1
> Cc1ccc(S(=O)(=O)n2nc(-n3c(C)ccc3C)c3c(F)cccc32)c2ccccc12
    ·, ·, 97, ·, ·, i, 1.3
> CCN(CC)C(=O)[C@]1(c2ccccc2)C[C@@H]1CN
    ·, ·, 103, ·, ·, i, 0.71
> CCCN1CCC(NC(=S)Nc2cccc(Cl)c2Cl)CC1
    ·, ·, 107, ·, 6, i, 0.89
> C/C(=N\Nc1nc(-c2cc(C)ccc2C)cs1)c1cc2ccccc2oc1=O
    37, 114, 109, -1.6, -3, i, 0.98
> O=C(c1ccc(Cl)c(S(=O)(=O)NCc2ccco2)c1)N1CCN(c2ccc(F)cc2)CC1
    -60, 133, 97, -0.2, -3, i, 0.87
> N#Cc1c(/N=C/c2ccco2)sc2c1CCCCC2
    ·, ·, 98, -3.4, 6, i, 0.9
> CCS(=O)(=O)c1ccc2c(c1)N(S(=O)(=O)c1ccc(OC)cc1)CC(C(=O)O)O2 (centres undefined)
    4, 103, 104, 2.0, -18, i, 0.89
> COC(=O)Cn1c(=O)cnc2ccccc21
    ·, ·, 106, -0.3, -8, i, 0.89
> CCOc1ccccc1NC(=O)/C(C#N)=C/c1c(C)nn(-c2ccccc2)c1Cl
    22, 104, 104, -1.9, -11, i, 0.92
> CCOc1ccc(NC(=O)CSc2nc3c(c(=O)n2C)SC(C)C3)cc1 (centres undefined)
    -60, 114, 76, -2.4, 1, i, 0.96
> COCCCNC(=O)c1c(N)n(-c2ccc(S(N)(=O)=O)cc2)c2nc3ccccc3nc12
    4, 140, 100, 3.3, 10, ·, ·

Results in Insulin prom inh and HSV replic up, for 3 of the compounds above:
smiles,Insulin prom inh,HSV replic up
CCCN1CCC(NC(=S)Nc2cccc(Cl)c2Cl)CC1,·,i
C/C(=N\Nc1nc(-c2cc(C)ccc2C)cs1)c1cc2ccccc2oc1=O,37,i
O=C(c1ccc(Cl)c(S(=O)(=O)NCc2ccco2)c1)N1CCN(c2ccc(F)cc2)CC1,-60,i

Returning to the listing, starting 5 compounds before the break.
Each structure is followed by: Insulin prom inh, Insulin prom inh cell count, RGS16-Gao, GALR2 ag, PKD1 inh, HSV replic up, HSV replic up primary fold
> CCS(=O)(=O)c1ccc2c(c1)N(S(=O)(=O)c1ccc(OC)cc1)CC(C(=O)O)O2 (centres undefined)
    4, 103, 104, 2.0, -18, i, 0.89
> COC(=O)Cn1c(=O)cnc2ccccc21
    ·, ·, 106, -0.3, -8, i, 0.89
> CCOc1ccccc1NC(=O)/C(C#N)=C/c1c(C)nn(-c2ccccc2)c1Cl
    22, 104, 104, -1.9, -11, i, 0.92
> CCOc1ccc(NC(=O)CSc2nc3c(c(=O)n2C)SC(C)C3)cc1 (centres undefined)
    -60, 114, 76, -2.4, 1, i, 0.96
> COCCCNC(=O)c1c(N)n(-c2ccc(S(N)(=O)=O)cc2)c2nc3ccccc3nc12
    4, 140, 100, 3.3, 10, ·, ·
> Cc1ocnc1C(=O)Nc1ccc(Cl)cc1
    -43, 190, 113, -3.0, -5, i, 0.93
> Cc1ccc(N2C(=O)CC(Nc3ccccc3)C2=O)cc1 (centres undefined)
    49, 158, 109, -0.9, 1, i, 0.69
> Cc1ccc(/C=N/N2CCOCC2)s1
    ·, ·, 107, ·, -6, i, 0.94
> CC1Cc2nc(SCC(=O)NC3CCCCC3)n(C)c(=O)c2S1 (centres undefined)
    -144, 90, 101, 0.1, -8, i, 0.76
> COc1cccc2cc(C(=O)NCCC3=CCCCC3)c(=O)oc12
    ·, ·, 99, ·, -1, i, 1
> CCCCNC(=O)c1onc(CSc2ccccc2)c1C(=O)O
    41, 74, 104, -1.8, 3, i, 0.94
> CCOc1cc(C(=O)OCC(=O)Nc2ncc(Cl)c(C)c2Cl)ccc1OCC(=O)N1CCOCC1
    ·, ·, 101, 0.8, 19, i, 1.1
> Cc1nn2c(CN(C(=O)CN3CCOCC3)c3ccccc3)nnc2c2ccccc12
    ·, ·, 96, -3.1, 0, i, 1.2
> CSc1nc(-c2ccccc2)c(C#N)c(=O)[nH]1
    ·, ·, 99, ·, ·, i, 0.94
> Cc1ccc(S(=O)(=O)c2c(C)cc(C)nc2N2CCCCC2)cc1
    ·, ·, 94, ·, 11, i, 1.1
> CCCCOCCCNC(=S)Nc1ccc(S(=O)(=O)N2CCOCC2)cc1
    ·, ·, 100, ·, ·, i, 1.3
> Cc1ccc(C(=O)NC(C)(COc2nonc2C)COc2nonc2C)cc1
    -6, 108, 99, -1.2, -6, i, 0.79
> Cc1cccc(N2CCN(C(=O)c3ccccc3NC(=O)C3CC=CCC3C(=O)O)CC2)c1 (centres undefined)
    26, 168, 102, -1.9, 5, i, 0.95
> CCOc1ccc(NC(c2ccccn2)c2oc(CO)cc(=O)c2O)cc1 (centres undefined)
    ·, ·, 103, ·, -2, i, 0.9
> O=C(CNS(=O)(=O)c1ccc2ccccc2c1)OCC(=O)c1ccc(Br)s1
    -10, 81, 94, -3.1, 0, i, 0.92
> COC(=O)C(C)Sc1ncnc2c1nnn2-c1ccc(F)cc1 (centres undefined)
    0, 142, 101, -0.3, -2, i, 0.84
> O=C(NC1CCCC1)c1ccc(CS(=O)(=O)c2cccc(C(F)(F)F)c2)o1
    ·, ·, 98, -1.9, 12, i, 0.98
> COc1cccc(Cn2cnc3c(N)c(C)c(C)cc32)c1
    -44, 77, 102, ·, -12, i, 0.97
> CCn1c(=O)cc(SCC(=O)Nc2cccc(C)n2)c2ccccc21
    6, 90, 97, ·, 0, i, 0.92
> Cc1ccc(NC(=O)c2nc[nH]c2C(=O)Nc2ccc(C)cc2)cc1
    -14, 71, 115, 0.0, -17, i, 0.84
> CCCOc1ccc(C(=O)c2ccccc2C(=O)O)cc1OCCC
    ·, ·, 93, ·, ·, i, 1
> CC(C)(C)[C@H]1C=C(C(=O)N2CCOCC2)O[C@@H](OCCCCO)C1
    ·, ·, 95, ·, -9, i, 1.1
> O=C(Nc1ccccc1)c1ccc2nsnc2c1
    -193, 111, 107, -2.0, -6, i, 1
